Screens deposited in PubChem by Johns Hopkins Ion Channel Center.
KCNQ2 block – KCNQ2 channel blockers in CHO-K1 cells – cell-based, FluxOR thallium flux, B-score, primary screen (AID 2156); 20 min; hits give low values; only compounds with negative scores are shown here; some inactives read as strong as hits; hit rate 1.1% among 310,000; B-score at 10 µM; O88943;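 active = fluorescence ratio B-score at most minus 3 library SDs, with starting brightness B-score within 2 library SDs, cut at about -5.5 in these data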
Target sequence (O88943 whole entry, looked up): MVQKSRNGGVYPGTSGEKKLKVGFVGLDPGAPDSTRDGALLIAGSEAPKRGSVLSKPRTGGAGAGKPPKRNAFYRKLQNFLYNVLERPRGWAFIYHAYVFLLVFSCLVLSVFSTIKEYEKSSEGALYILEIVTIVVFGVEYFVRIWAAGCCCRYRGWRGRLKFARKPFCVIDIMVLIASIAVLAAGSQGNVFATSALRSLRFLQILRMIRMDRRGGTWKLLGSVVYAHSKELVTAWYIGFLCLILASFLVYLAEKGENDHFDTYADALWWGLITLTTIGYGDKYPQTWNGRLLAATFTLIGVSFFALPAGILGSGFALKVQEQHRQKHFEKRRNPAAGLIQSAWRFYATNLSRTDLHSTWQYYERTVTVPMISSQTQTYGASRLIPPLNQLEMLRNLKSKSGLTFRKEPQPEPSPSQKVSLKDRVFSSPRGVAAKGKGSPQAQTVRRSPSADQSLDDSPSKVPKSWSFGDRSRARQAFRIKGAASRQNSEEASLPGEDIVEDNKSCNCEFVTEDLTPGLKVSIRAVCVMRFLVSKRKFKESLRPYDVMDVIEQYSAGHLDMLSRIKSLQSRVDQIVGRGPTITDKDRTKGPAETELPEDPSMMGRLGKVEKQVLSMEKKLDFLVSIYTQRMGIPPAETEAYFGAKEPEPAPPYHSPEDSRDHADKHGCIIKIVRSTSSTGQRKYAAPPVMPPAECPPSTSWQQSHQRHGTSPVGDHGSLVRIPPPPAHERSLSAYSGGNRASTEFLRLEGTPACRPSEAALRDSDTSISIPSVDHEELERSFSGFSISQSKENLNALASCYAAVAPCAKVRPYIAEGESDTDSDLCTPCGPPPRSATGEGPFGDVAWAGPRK
KCNQ2 block baseline – recorded beside KCNQ2 block, whose call it bears; B-score; measured here: initial fluorescence intensity artifact check;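 brightness before thallium and not channel activity; 0 = typical well and far values either way flag optical interference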
The depositor's hits bear a star; i = inactive. An excerpt, so the mix of outcomes need not match the whole.

Results follow in this order: KCNQ2 block baseline, KCNQ2 block
- Cc1sc(NC(=O)c2ccccc2)c(C(c2ccccn2)N2CCN(CCO)CC2)c1C (stereo unspecified)
 : 0.32, i
- COc1ccc(C=C(C#N)C#N)c(CSc2ccccn2)c1
 : -0.02, i
- CCOC(=O)COc1ccc2c(c1)C(=O)CC(C)(c1cccnc1)O2 (stereo unspecified)
 : 0.76, i
- CC(C)(C)c1nc(Sc2ncccc2[N+](=O)[O-])n[nH]1
 : 1.4, i
- CC1CC(C)CN(CCCNC(=O)c2ccc3c(c2)NC(=O)CS3)C1 (stereo unspecified)
 : -0.27, i
- COc1ccccc1CC(=O)Nc1nc(-c2ccc(F)c(F)c2)cs1
 : 0.28, i
- CCOC(=O)CSc1nc2ccccc2n1CC(=O)N(C(C)C)C(C)C
 : -1.4, i
- CSc1ccccc1NC(=O)c1cnc2scc(C)n2c1=O
 : 0.28, i
- CN1CCN(CCOCCOc2c(Cl)cc(Cl)cc2Cl)CC1
 : 0.23, i
- O=C(COc1ccccc1C(=O)Nc1ccccc1)NCCc1ccccc1
 : 0.14, i
- COc1ccc(OC)c(N2C(=O)CC(C(C)c3ccccc3)C2=O)c1 (stereo unspecified)
 : 0.73, i
- Cc1ccccc1N(CC(=O)NCC1CCCO1)C(=O)C1(C)CC(=O)N=C2C=CC=CN21 (stereo unspecified)
 : 2.5, i
- CCN(CC)C(=O)CSc1ncnc2c1nnn2-c1ccc(OC)cc1
 : 1.4, i
- Cc1noc(C)c1S(=O)(=O)N1CCCC(C(=O)N2CCN(C3CCCCC3)CC2)C1 (stereo unspecified)
 : -0.2, i
- CC(C)(C)C(=O)N1CCN(c2c(Cl)cccc2[N+](=O)[O-])CC1
 : -2, i
- COc1ccc(CNC(=O)CSc2nc(-c3ccccc3)cc(-c3cccs3)c2C#N)cc1
 : 0.56, i
- COc1ccc2sc(N(CCN(C)C)C(=O)c3ccc4ccccc4c3)nc2c1
 : 0.68, i
- O=C(NCc1ccccc1)c1cc(-c2ccco2)on1
 : 2.3, i
- CC(Sc1nc(-c2ccccc2)cc(C(F)(F)F)n1)C(=O)Nc1sc2c(c1C#N)CCC2 (stereo unspecified)
 : 1, i
- CCN(CC)S(=O)(=O)c1cccc(-c2nnc(-c3ccc(C)cc3)o2)c1
 : 0.9, i
- Cc1ccccc1OCC(O)CN(CCO)Cc1ccccc1 (stereo unspecified)
 : 0.03, i
- COC(=O)C1CCN(C(=O)COC(=O)C2CCN(S(=O)(=O)c3ccc(C)c(C)c3)CC2)CC1
 : -1.2, i
- O=c1cc(O)c2c(=O)n(Cc3ccccc3)c3ccccc3c2o1
 : -2.1, i
- Cc1ccc(-c2noc(CCC(=O)N3CCCc4ccccc43)n2)cc1
 : 0.74, i
- O=C(NC(=S)NC1CCCCC1)c1ccc(Cl)cc1
 : 0.47, i
- O=C1CN(S(=O)(=O)c2ccccc2)CC(=O)N1CCc1ccccc1
 : -0.16, i
- Cc1ccc(Sc2ncccc2C(N)=O)cc1
 : -0.05, i
- NC(=O)C1CCN(CC(O)COc2ccc(-c3ccccc3)cc2)CC1 (stereo unspecified)
 : -1.3, i
- CCc1noc(C)c1C(=O)Oc1ccc(N(C)S(=O)(=O)c2ccc(C)c(C)c2)cc1
 : -0.46*, -6.9*
- O=C(CCc1c[nH]c2ccccc12)OCc1ccc(Br)cc1
 : -0.93, i
- O=C(NC1(O)C(=O)c2ccccc2C1=O)c1ccccc1
 : -0.76, i
- Cc1cc(C)cc(C(=O)N(C)C2CCCN(Cc3ccccc3F)C2)c1 (stereo unspecified)
 : 0.82, i
- COCc1cc(CN2CCN(CCCc3ccccc3)C(CCO)C2)ccc1OC (stereo unspecified)
 : -0.27, i
- CC(C)Cc1nnc(NC(=O)CCS(=O)(=O)c2ccc(Cl)cc2)s1
 : 1.3, i
- COC(CNC(=O)CN1CCN(Cc2ccc(F)cc2Cl)C1=O)OC
 : 0.92, i
- COc1cc(/C=N/NC(=O)Nc2ccccc2)ccc1OC(C)=O
 : 0.01, i
- Cc1ccc(C(c2sc3ncnn3c2O)N2CCCCC2)cc1 (stereo unspecified)
 : -0.09, i
- Cc1ccc2c(c1)sc1nc(=O)ccn12
 : 2.1, i
- O=[N+]([O-])c1ccc(CN2CCN(c3ccc(Cl)cc3)CC2)o1
 : -0.1, i
- Cc1nccn1CCOc1ccc(Cl)cc1
 : 2.3, i
- Cn1c(-c2ccc(=O)[nH]c2)nc2ccccc21
 : 0.64, i
- Cc1cc(C(=O)NC2CCCc3c2cnn3-c2ccc(C)c(C)c2)n(C)n1 (stereo unspecified)
 : 0.92, i
- CCCCc1ccc(/C(C)=N/NC(=O)C2CCCC2)cc1
 : 0.1, i
- CC(=O)c1nnn(-c2nc(N3CCCC3)nc(N(c3ccccc3)c3ccccc3)n2)c1C
 : 0.8, i
- CCN(CC)S(=O)(=O)c1cc([N+](=O)[O-])ccc1NNC(=O)Nc1ccc(Cl)c(Cl)c1
 : 0.17, i
- OCCN(Cc1ccccc1)Cc1ccc(F)c(F)c1
 : 0.28, i
- CC(=O)Nc1cccc(OCc2ccc(F)cc2)c1
 : -0.9, i
- Cc1cccc(N(C(=O)CCC(=O)Nc2cc(C)on2)C(C(=O)NC2CCCC2)c2ccncc2)c1 (stereo unspecified)
 : -1.7, i
- COc1cc(/C(C)=N/N2CCOCC2)cc(OC)c1OC
 : -1.3, i
- Cc1cc(N/C=C/C(=O)c2ccc(Br)cc2)no1
 : -0.81, i
- O=C(O)C1CCCCC1C(=O)Nc1ccc(OCc2ccccc2)cc1 (stereo unspecified)
 : -0.28, i
- Cc1ccc(N2C(=O)N(CC(=O)Nc3ccc(C)c(C)c3[N+](=O)[O-])C(=O)C2C)cc1 (stereo unspecified)
 : 0.54, i
- COc1ccc(C2CC2/C(=N/OC(=O)c2cccs2)c2ccccc2)cc1 (stereo unspecified)
 : -0.74, i
- Cc1csc(NC(=O)CSc2nnc(C)s2)n1
 : 2.3, i
- CC1CN(C(=S)Nc2ccccc2)N(c2ccccc2)C1 (stereo unspecified)
 : 2.2, i
- Cc1ccc(-n2ncc3c2CC(C)(C)CC3NC(=O)c2ccc[n+]([O-])c2)cc1 (stereo unspecified)
 : -0.39, i
- COC(=O)NC1c2ccccc2Oc2ccc(C)cc21 (stereo unspecified)
 : -0.84, i
- C=CCSc1nc2c(cnn2-c2ccc(C)c(C)c2)c(=O)[nH]1
 : -0.86, i
- Cn1cnnc1SCC(=O)Nc1ccccc1
 : 0.94, i
- CCC(=O)N1C(=O)C2(Nc3ccccc3N2)c2ccccc21
 : -0.2, i

More results:
Results follow in this order: KCNQ2 block baseline, KCNQ2 block
- C[N+]12CCCCC1[C@@H](CO)CCC2 (stereo partly specified)
 : 1.3, i
- CCN(CC)C(=O)CSc1nnc([C@@H](NC(=O)OC(C)(C)C)C(C)C)o1
 : 0.44, i
- COc1ccc(N2CCN(CCNC(=O)c3c(C)cc(=O)oc3C)CC2)cc1
 : 2.3, i
- O=C(Cn1nc(-c2ccccc2)c2ccccc2c1=O)NN1CCOCC1
 : -0.19, i
- CCOC(=O)C1CCCN(C(=O)c2sc3nc(C)nc(N(CC)CC)c3c2C)C1 (stereo unspecified)
 : -0.24, i
- COc1cc(/C=C/C(=O)NCc2nc3ccccc3[nH]2)cc(OC)c1OC
 : 0.31, i
- Cc1nnc(Sc2c(N)n(C)c(=O)[nH]c2=O)s1
 : 1.1, i
- CC(C)(C)Nc1nc(Cl)nc(NC2CCCCC2)n1
 : 1.5, i
- CCOC(=O)Cn1nc(Cc2ccccc2)c2ccccc2c1=O
 : -1.6, i
- O=C(NCc1ccccc1)c1cc2ccccc2o1
 : 1.1, i
- COc1ccc(CC(=O)N2N=C(C)CC2(O)C(F)(F)F)cc1 (stereo unspecified)
 : 2.1, i
- COc1ccccc1NC(=O)Cc1noc(CSc2nnc(N)s2)n1
 : -0.43, i
- O=C(O)CSc1cc(NS(=O)(=O)c2ccc(Br)cc2)c2ccccc2c1O
 : -3.6, i
- COc1ccc(-c2noc(=O)n2Cc2ccc(F)cc2Cl)cc1
 : 0.82, i
- O=C(Nc1ccc(Cl)cc1C(F)(F)F)C(Sc1cccc[n+]1[O-])c1ccccc1 (stereo unspecified)
 : -0.64, i
- COc1ccc(-c2cc(C(=O)NCC3CCCO3)on2)cc1OC (stereo unspecified)
 : -2.8, i
- COc1ccc(N=Cc2nc(-c3ccccc3)oc2OC(=O)c2ccccc2)cc1
 : 0.55, i
- S=C(NCCCN1CCOCC1)Nc1cccc(Cl)c1
 : 0.34, i
- Cc1cc(C)c(COc2ccc(/C=N/n3c(C)n[nH]c3=S)cc2)c(C)c1
 : -0.78, i
- O=C(C1CCCC1)N1CCN(S(=O)(=O)c2ccc(F)cc2)CC1
 : 0.6, i
- CC(=O)Nc1cccc(NS(=O)(=O)c2cc3c4c(c2)CCN4C(=O)CC3)c1
 : -3, i
- Nc1ccccc1C(=O)Nc1ccc(Cl)cc1Cl
 : 0.17, i
- CCn1c(=O)n(CCc2ccccc2)c(=O)c2c3c(sc21)CCCC3
 : 0.91, i
- O=C(NN1CCOCC1)c1cc(-c2ccc(Cl)c(Cl)c2)nc2ccccc12
 : 0.07, i
- CC(C)(CNC(=O)c1sc2cc(Cl)ccc2c1Cl)N1CCOCC1
 : -1.7, i
- O=C(Nc1cccc(Cl)c1Cl)c1snnc1-c1ccccc1
 : -0.79, i
- COC(=O)c1cc2nc(-c3ccc(C)cc3)cc(C(F)(F)F)n2n1
 : -0.11, i
- Cc1cc(C)cc(N(CC(=O)Nc2ccccc2-c2ccccc2)S(=O)(=O)c2ccccc2)c1
 : -2.7, i
- CCOC(=O)Cc1nnc2c(Nc3ccc(Cl)cc3)nc3nonc3n12
 : 0.75, i
- Cn1c(SCc2ccccc2)nnc1-c1ccco1
 : -0.52, i

Three structures from above, ordered by molecular weight, lowest first:
Results follow in this order: KCNQ2 block baseline, KCNQ2 block
- Cn1c(SCc2ccccc2)nnc1-c1ccco1
 : -0.52, i
- Nc1ccccc1C(=O)Nc1ccc(Cl)cc1Cl
 : 0.17, i
- CCOC(=O)C1CCCN(C(=O)c2sc3nc(C)nc(N(CC)CC)c3c2C)C1 (stereo unspecified)
 : -0.24, i

Carrying on:
Results follow in this order: KCNQ2 block baseline, KCNQ2 block
- COc1cc(C(C)=O)ccc1OCc1nnc(-c2ccccc2Br)o1
 : 0.31, i
- COC(=O)Cc1[nH]n(-c2ccccc2)c(=O)c1C=Nc1ccc(C)cc1
 : 0.11, i
- O=C(NCC(=O)N(Cc1ccccc1)C(C(=O)NCC1CCCO1)c1ccccc1)c1cccs1 (stereo unspecified)
 : -0.59*, -5.6*
- CC(C#Cc1ccc2c(c1)COc1c3ccccc3nn1-2)OC(C)(C)C (stereo unspecified)
 : 0.85, i
- O=C(CSc1ccc(-c2ccco2)nn1)c1ccc(F)cc1
 : 0.05, i
- CN1CCC(=C(c2ccccc2)c2ccc(Br)cc2)CC1
 : 0.02, i
- O=C(c1ccco1)N1CCN(c2nc(C3CC3)nc3sc4c(c23)CCCC4)CC1
 : 1.3, i
- COc1ccccc1NC(=S)NC(=O)CC(C)C
 : -0.71, i
- O=C(NN=C1CCCC1)c1[nH]c2ccc(Br)cc2c1-c1ccccc1
 : -0.13, i
- COc1cccc(C(=O)Oc2ccc3ccc(O)cc3c2)c1
 : 1.4, i
- Cc1ccc(C(=O)CSc2n[nH]c(C)n2)cc1
 : -0.69, i
- Cc1ccc(S(=O)(=O)NCCC(=O)NCC(c2cccs2)N2CCOCC2)cc1 (stereo unspecified)
 : -0.35, i
- COc1ccc(C(=O)C[n+]2cccc(C)c2)cc1
 : -0.78, i
- CC(C)CCOP(=O)(c1ccc(N(C)C)cc1)C(O)c1ccc(N(C)C)cc1 (stereo unspecified)
 : -3.4, i
- CCOC(=O)c1c(CSc2ccsc2)n(C)c2cc(Br)c(O)c(CN(C)C)c12
 : -0.54, i
- O=C(NCC(c1cccnc1)N1CCOCC1)c1cccc(Cl)c1 (stereo unspecified)
 : 1.9, i
- O=C(NCc1n[nH]c(=S)n1-c1ccc(F)cc1)c1ccc(S(=O)(=O)N2CCOCC2)cc1
 : 3.3, i
- Cc1nn(C)c(C)c1NS(=O)(=O)c1ccccc1
 : -1.2, i
- O=C(O)CCCN1C(=O)C2C3CC(C2C1=O)C1C(c2ccccc2)c2sc(=O)n(-c4ccccc4)c2SC31 (stereo unspecified)
 : -0.56, i
- COC(=O)CC1(C(=O)OC)Oc2ccc(Br)cc2C(=O)N1c1cc(Cl)c(Cl)cc1Cl (stereo unspecified)
 : 0.53, i
- COc1ccc(Cc2nnc(NC(=O)C3CCN(C(=O)c4ccco4)CC3)s2)cc1
 : 2.1, i
- Cc1ccc(N(CCCCN2C(=O)c3ccccc3C2=O)C(=O)c2cccc([N+](=O)[O-])c2)cc1
 : -0.62, i
- CC(=O)c1sc(NC(=O)c2c(F)cccc2F)nc1C
 : 0.12, i
- COc1ccc(-c2ccc(CCC(=O)O)n2CC(=O)Nc2cccc(OC)c2)cc1
 : 0.99, i
- CCOC(=O)C(=NCCCN1CCOCC1)NNc1cccc(C(F)(F)F)c1
 : 2.1, i
- C=CCNCCCCOc1ccc(OCC)cc1
 : -0.41, i
- CCc1nc(SCC(=O)O)c2c3c(sc2n1)COC(C)(C)C3
 : -0.64, i
- CCNC(=O)CC1C(=O)N(c2ccc(F)cc2)C(=O)N1Cc1ccccn1 (stereo unspecified)
 : 0.96, i
- CN(C)c1nc(Cl)nc(N(C#N)CCOc2ccccc2)n1
 : 0.79, i

6 records picked at random from those above, as already listed:
Results follow in this order: KCNQ2 block baseline, KCNQ2 block
- CCNC(=O)CC1C(=O)N(c2ccc(F)cc2)C(=O)N1Cc1ccccn1 (stereo unspecified)
 : 0.96, i
- Cc1ccc(S(=O)(=O)NCCC(=O)NCC(c2cccs2)N2CCOCC2)cc1 (stereo unspecified)
 : -0.35, i
- COc1cc(C(C)=O)ccc1OCc1nnc(-c2ccccc2Br)o1
 : 0.31, i
- O=C(NN=C1CCCC1)c1[nH]c2ccc(Br)cc2c1-c1ccccc1
 : -0.13, i
- CC(=O)c1sc(NC(=O)c2c(F)cccc2F)nc1C
 : 0.12, i
- O=C(c1ccco1)N1CCN(c2nc(C3CC3)nc3sc4c(c23)CCCC4)CC1
 : 1.3, i
